NPYLR7 ag = mosquito NPYLR7 agonism. 0.15% of 270,000 active. activation, % at 10 µM. HEK293T NPYLR7/Galpha15, GCaMP6s calcium fluorescence. AID 1259423; in the data active = activation above about 40%;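 also: 0% = vehicle and 100% = reference agonist at the receptor; some compounds past the cut are filed as inactive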
NPYLR7 ag max-min = recorded beside NPYLR7 ag, whose call it bears; activation, %; measured here: Max-Min RFU normalised activation; some inactives read as strong as hits;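 span of the calcium signal over five minutes; 0% = vehicle and 100% = native peptide agonist; compound fluorescence can raise it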
Starred values were filed as active, the others as inactive; & = joins results of further samples.

SMILES	NPYLR7 ag	NPYLR7 ag max-min
COc1ccc(-c2cnc(-c3ccc(CNC(=O)c4ccc(F)c(F)c4F)cc3)[nH]2)cc1	-8	-11
COc1ccc(NC(=O)C2CCN(C(=O)[C@@H](Cc3ccccc3)NC(=O)Nc3c(F)cc(Br)cc3Br)CC2)cc1	-2	4
Cc1cc(C)n(CC2CN(CC(=O)Nc3c(C)n[nH]c3C)CCO2)n1 (configuration not stated)	6	2
COC(=O)c1ccc(C2Nc3cc(C)c(C)cc3N=C3CC(C)(C)CC(=O)C32)cc1 (configuration not stated)	-1	-4
O=c1c(O)c(-c2cc(Cl)cc3c2OCOC3)oc2ccc(Cl)cc12	2	1
CN1CCN(C(=O)c2coc(CN(Cc3cccc(C(F)(F)F)c3)Cc3cccs3)n2)CC1	1	9
COc1ccccc1NS(=O)(=O)c1cc(C(=O)Nc2ccccc2)ccc1C	17	14
CN(Cc1ncc[nH]1)Cc1ccccc1C(=O)O	3	0
CCC(C)(C)NC(=O)CN1CCC(C(=O)N(C)C)CC1	10	7
CCN(CC(=O)Nc1cc(-c2ccccc2)nn1-c1ccc(Cl)cc1)C(=O)Nc1ccc(F)cc1F	0	12
O=C1C2C3C=CC(C3=C3CCCC3)C2C(=O)N1c1cccc([N+](=O)[O-])c1 (configuration not stated)	1	2
O=C(C1CCOC1)N1CCOc2c(O)cc(-c3cccnc3)cc2C1 (configuration not stated)	4	3
O=C(Cn1cnc2sccc2c1=O)N1CCC2CCCCC2C1 (configuration not stated)	0	3
COc1ccc(Cl)cc1-c1ncncc1C(C)C	9	6
CCNC(=O)N1CCCC(OCc2ccc(F)cc2)C1 (configuration not stated)	1	6
COc1ccccc1C(=O)N1CCC(C(NC(=O)c2cccs2)C(=O)NC2CC2)CC1 (configuration not stated)	-8	-7
O=S(=O)(Nc1ccccc1I)c1ccccc1	-2	-3
Cc1cc(-n2c(C)cc(C(=O)Cn3cc(S(=O)(=O)N4CCCC4)ccc3=O)c2C)no1	0	26
COc1ccc(NC(C)=O)cc1NC(C)c1nc2ccccc2s1 (configuration not stated)	-2	-4
COC(=O)CN1C(=O)Nc2ccc(C)cc2C1c1ccccc1 (configuration not stated)	-3	-4
N#CC1C(=N)Oc2n[nH]c(-c3ccc(Br)cc3)c2C1c1ccsc1 (configuration not stated)	-4	-12
Cc1cc(-n2c(CCc3ccccc3)nnc2SCC(=O)O)n(C)n1	-4	-6
CCSc1nc2c(=O)[nH]cnc2n1C1OC(CO)C(O)C1O (configuration not stated)	-1	-1
CN(Cc1ccc(Cl)c(Cl)c1)C(=O)NCc1ccccc1S(=O)(=O)N1CCCCC1	13	7
Cc1c(C(=O)N2CCN(S(C)(=O)=O)CC2)cc(-c2ccc(Cl)cc2)n1-c1cccc(F)c1	-1	6

Structures above with a thiophene ring, fused or not:
SMILES	NPYLR7 ag	NPYLR7 ag max-min
CN1CCN(C(=O)c2coc(CN(Cc3cccc(C(F)(F)F)c3)Cc3cccs3)n2)CC1	1	9
O=C(Cn1cnc2sccc2c1=O)N1CCC2CCCCC2C1 (configuration not stated)	0	3
COc1ccccc1C(=O)N1CCC(C(NC(=O)c2cccs2)C(=O)NC2CC2)CC1 (configuration not stated)	-8	-7
N#CC1C(=N)Oc2n[nH]c(-c3ccc(Br)cc3)c2C1c1ccsc1 (configuration not stated)	-4	-12

Later entries.
SMILES	NPYLR7 ag	NPYLR7 ag max-min
O=C(CCc1c(F)cccc1F)NS(=O)(=O)N1CCCCC1	-1	411
CC(C)c1ccc(NC2CCCN(C(=O)Nc3ccc4c(c3)OCO4)C2)cc1 (configuration not stated)	8	4
Fc1ccc(-c2noc(CSc3nnnn3C3CCCC3)n2)cc1	2	3
CCOCc1nccc(-c2cc(C(=O)O)ccn2)n1	6	5
Cc1c(Cl)c([N+](=O)[O-])nn1CC(=O)Nc1c(F)cc(F)cc1Br	-7	-10
CC(OC(=O)C1=COCCO1)C(=O)Nc1cccc2c1C(=O)c1ccccc1C2=O (configuration not stated)	-6	-3
COC(=O)c1ccc2c(c1)C1CC(C)(O2)N(c2ccc(Br)c(C)c2)C(=O)N1 (configuration not stated)	-3	3
O=C(Cn1cnc2sccc2c1=O)Nc1ccc2c(c1)CCC2	-8	-9
CC1(Cc2cccc(C(F)(F)F)c2)C(=O)Nc2c(Cl)ccc(Cl)c21 (configuration not stated)	6	4
Cc1cc(C)nc(SCc2cc(=O)c(OC(=O)c3ccccc3C(F)(F)F)co2)n1	-12	-4
O=S(=O)(c1ccccc1)c1cnc2cc3c(cc2c1N1CCCC1)OCCO3	2	2
c1ccc2c3c([nH]c2c1)C(c1nc(C2CC2)n[nH]1)CCC3 (configuration not stated)	15	3
Cc1nccc(-c2cccc(NCC(=O)N3CCCCCCC3)c2)n1	0	-1
C=CCN(c1ccc(Cl)cc1)S(=O)(=O)c1ccc(Cl)c(C(=O)O)c1	8	3
CCN(CC)C(=O)N1CCN(c2ccc(Nc3ccnc4cc5ccccc5cc34)cc2)CC1	-9	-13
CCOCCCN1COc2ccc3c(c2C1)O/C(=C\c1ccccc1)C3=O	7	4
O=C(NCCNc1ccc(Nc2ccncc2)nn1)C1CCCC1	13	2
CC(C)C1CN(C(=O)CN2CCOC2=O)CCC(=O)N1Cc1ccc(F)cc1 (configuration not stated)	5	-3
CCCCCCCCCCCCCCCCCCOCC(O)CO (configuration not stated)	-5	-10
C=C(c1ccc(C(=O)O)cc1)c1cc2c(cc1C)C(C)(C)CCC2(C)C	-6	-13
C(=C\c1ccccc1)/CN1CCN(Cc2cc3n(n2)CCCNC3)CC1	4	6
CCC(=O)N1CCN(S(=O)(=O)c2c(C)cc(C(C)(C)C)cc2C)CC1	-1	12
Cc1nc2sccn2c(=O)c1NC(=O)c1ccc(Br)cc1	15	8
Cc1c(C(=O)NCc2ccc3c(c2)OCCO3)sc(=O)n1Cc1ccccc1C#N	6	3
O=C(NCC1(c2cccc(Br)c2)CCOCC1)c1ccco1	-29	-27
SMILES	NPYLR7 ag	NPYLR7 ag max-min
CCc1cccc2c(C(CC(=O)NCCCOC)c3ccc(C)cc3)c[nH]c12 (configuration not stated)	4	11
Cn1nnc2cc(C(=O)N3[C@@H]4CC[C@H]3CNC(=O)C4)ccc21	4	2
CN(Cc1ccccc1Cl)C(=O)Cc1csc(N2CCCC2=O)n1	0	-1
COC(=O)c1occc1/C=C/c1nc2ccccc2[nH]c1=O	37	31
Cc1cnccc1CN(C)C(=O)[C@H](N)CC(C)C	1	2
Cc1ccc(CN2CCN(c3nccc(N4CCC(O)C4)n3)CC2=O)cc1 (configuration not stated)	9	6
Cc1[nH]c(=O)n(C)c(=O)c1CCc1nnc(SCC(=O)Nc2cccc(Cl)c2)o1	-10	-15
Nc1nc(Cl)cc(N2CCc3ccccc32)n1	10	8
CCSCCOC(=O)C1=C(C)NC(=O)NC1c1ccc(OC)cc1 (configuration not stated)	-2	-6
Cc1cccc(Cn2c(NC3CCCC3)nc3c2c(=O)[nH]c(=O)n3C)c1	-4	-4
COc1cccc(C(=O)N(CC(=O)N(CCc2ccc(OC)c(OC)c2)Cc2ccco2)C(C)C)c1	-6	-5
CCCCN1CCN(C(=O)c2snnc2CC)CC1=O	-2	2
COc1ncccc1C(=O)N1CCCC(N2CCN(Cc3ccc4c(c3)OCO4)CC2)C1 (configuration not stated)	15&-1	10&-2
CCCCN(Cc1cccn1Cc1ccc(Br)cc1)C(=O)CN(C(=O)COC)C(C)C	0	9
CC(NC(=O)C1CCN(CCOc2ccccc2)CC1)c1ccccc1 (configuration not stated)	-11	-14
Cc1cc(C(=O)N=c2sc3ccccc3n2C)nn1C	3	-1
Cc1ccc(F)c(Oc2cc(N3CCNC(C)C3)ncn2)c1 (configuration not stated)	16	25
CCCOc1ncccc1CNc1c(F)cc(C#N)cc1F	0	8
Cc1ccccc1-n1c(SCc2ccccn2)nnc1-c1ccccc1F	-3	2
CCOC(=O)c1cc(-c2cccc(NC(=O)c3ccccc3OC)c2)n(-c2ccccn2)n1	9	5
CC(=C=CC(C)(C)C1OCC(C)O1)CCC=C(C)C (configuration not stated)	-2	0
CCOC(=O)C1CCN(C(=O)c2ccc(Nc3cccc(C(F)(F)F)c3)nc2)CC1	-9	-13
C=CCOc1c(OC)ccc2c1CN(C1CCCC1)C(=O)CCN2CC(O)COC(C)(C)C (configuration not stated)	2	1
COc1ccc(F)cc1COc1ccc2c(C3CC3)noc2n1	3	1
O=C1CCCN1C1CCN(c2ncccc2C(F)(F)F)CC1	-2	-5
SMILES	NPYLR7 ag	NPYLR7 ag max-min
CCCNC(=O)CN1CN(c2ccccc2)C2(CCN(C(=O)Nc3ccc(C#N)cc3)CC2)C1=O	10	12
CCNC(=O)N(CCN1CCCC1)CC(=O)N(CCc1ccccc1)Cc1ccc(C)o1	2	4
O=C(CCSCc1ccc(F)cc1)N1CCCN2CCC[C@H]2C1	3	0
CCN(CC)CC(=O)N(CC1CCN(CCOC)CC1)CC1CCCN1CC (configuration not stated)	-2	-3
Cc1ccc(O)c(CN2CCN(C(=O)c3ccccc3)CC2)n1	0	20
Cc1nc(-c2ccsc2)sc1C(=O)NC12CC3CC(CC(C3)C1)C2	7&7	8&7
COc1ccc(C(=O)Nc2ccc3c(c2)OC(F)(F)O3)cc1S(=O)(=O)NC1CC1	2	0
COc1ccc(CNC(=O)CCC2CCCN(Cc3nc4ccccc4[nH]3)C2)c(OC)c1 (configuration not stated)	9	12
COc1cc2c(cc1OC)C(C(C)NC(=O)c1cccs1)N(Cc1cccc(C)c1)CC2 (configuration not stated)	8	18
Cc1nc(C(=O)NC(C2CC2)C2CC2)nn1-c1ccccc1Cl	2	0
O=C1Nc2ccccc2/C1=C/C(=O)c1ccc([N+](=O)[O-])cc1	-6	-12
CCCCn1nc(C(=O)N(C)CC(=O)Nc2cccc(OC)c2)c2ccccc2c1=O	8	3
Cc1nc(N2CCCCC2)nc2c1C(=O)CC(/C=C/c1ccccc1)C2 (configuration not stated)	3	-2
CCCC(NC(=O)c1cc([N+](=O)[O-])cc([N+](=O)[O-])c1)c1nc2ccccc2[nH]1 (configuration not stated)	0	-2
COCC1(C(=O)N(C)Cc2nnc(-c3ccccc3)o2)CCC1	5	4
CC(C)c1ccc(C(=O)Oc2ccc(/C=C3\C(=N)N4N=CSC4=NC3=O)cc2)cc1	1	-1
CCn1ccnc1CN1CCC(CNC(=O)C2CCCCC2)C1 (configuration not stated)	6	4
CC(=O)c1ccc2c(c1)N(Cc1ccc(C)cc1)C(=O)C(C)S2 (configuration not stated)	1	-2
CCCCN(Cc1ccccc1F)C(=O)c1cc(C(C)=O)c(C)[nH]c1=O	-2	-7
CCn1c(SCC(C)C)nc2cc(S(N)(=O)=O)ccc21	0	7
O=C(O)C1(CCc2ccccc2)CCN(c2ncccn2)CC1	9	1
CCc1nc(CN(C2CC2)C(C)C2CC2)cs1 (configuration not stated)	-10	-9
O=C(C=Cc1nc2ccccc2s1)NNC(=O)C12CC3CC(CC(C3)C1)C2	1	-2
Cc1[nH]n(-c2nc(-c3cccc([N+](=O)[O-])c3)cs2)c(=O)c1N=Nc1ccc(S(N)(=O)=O)cc1	-6	-12
Cc1ccccc1NC(=NS(=O)(=O)c1cc(F)ccc1F)c1ccccc1	-6	-10

7 structures out of the list, sorted by molar mass, rising:
SMILES	NPYLR7 ag	NPYLR7 ag max-min
O=C(O)C1(CCc2ccccc2)CCN(c2ncccn2)CC1	9	1
CCn1c(SCC(C)C)nc2cc(S(N)(=O)=O)ccc21	0	7
COCC1(C(=O)N(C)Cc2nnc(-c3ccccc3)o2)CCC1	5	4
CCn1ccnc1CN1CCC(CNC(=O)C2CCCCC2)C1 (configuration not stated)	6	4
Cc1nc(-c2ccsc2)sc1C(=O)NC12CC3CC(CC(C3)C1)C2	7&7	8&7
COc1ccc(C(=O)Nc2ccc3c(c2)OC(F)(F)O3)cc1S(=O)(=O)NC1CC1	2	0
COc1ccc(CNC(=O)CCC2CCCN(Cc3nc4ccccc4[nH]3)C2)c(OC)c1 (configuration not stated)	9	12

(more compounds)
SMILES	NPYLR7 ag	NPYLR7 ag max-min
O=C(Nc1nc(C2CC2)cs1)c1cc2ccccc2cc1O	4	4
O=C(NCCN1CCNC1=O)c1ccc2sc([C@H]3C[C@H](O)[C@@H](CO)O3)nc2c1	0	-2
c1nc(NCCCc2nn[nH]n2)cc(N2CCCCC2)n1	4	3
COc1ccc([N+](=O)[O-])cc1NC(=O)C1CCCN1S(=O)(=O)c1ccc(Cl)s1 (configuration not stated)	9	6
CNCc1nc2sc3c(c2c(=O)[nH]1)CCC(C)C3 (configuration not stated)	-3	6
COc1ccc(C)cc1Nc1nc2c(S(=O)(=O)c3ccc(C)cc3)nnn2c2ccsc12	9	11
Cc1c(C)n2c3c(=O)n(CC(C)C)c(=O)n(C)c3nc2n1C(C)C	-6	-8
COc1cccc(-c2cc(C(=O)N3CCC4(CC3)OCCO4)c(C)n2-c2ccc(F)cc2)c1	-4	8
COc1cc(C)c(-c2nc(CN3CCOC(CCO)C3)c(C)o2)cc1C (configuration not stated)	4	3
COc1ccccc1N1CCN(S(=O)(=O)c2c(C)c(C)cc(C)c2C)CC1	-4	-8
CCCNC(=O)COc1coc(CN2CCN(c3ccccc3F)CC2)cc1=O	8	8
O=C(c1ccc(Cl)cc1OC1CCN(C/C=C/c2ccco2)CC1)N1CCCCC1	-2	-5
O=C1CNc2c(c(=O)oc3ccccc23)N1	2	3
COCc1nc(N(C)Cc2cc3cc(F)ccc3[nH]2)c2cnn(C)c2n1	1	-1
COc1ccc(-n2nc(-c3ccc(Cl)cc3)cc2NC(=O)c2cccc(C#N)c2)cc1	5	0
CN1CCC2(CC1)N=C(c1ccccc1)C(=S)N2C(=O)c1ccccc1	-7	-14
Cc1oc(-c2ccc(C(F)(F)F)cc2)nc1CC(=O)N1CCCN(Cc2cc(=O)c(OCc3cccc(F)c3)co2)CC1	17	4
COc1ccc2[nH]cc(C3CCN(C(=O)c4cccc(OC(C)=O)c4C)CC3)c2c1	3	-3

Compound activity from PubChem.

These rows are one share of the data; count on the stated rates, not on these rows.
